High-throughput results from PubChem.
Yeast UUG start = modulators of start codon recognition fidelity in yeast | S. cerevisiae UUG-firefly luciferase reporter, luminescence/redox ratio | activity score, % at 18.7 µM | AID 602363 | hit rate 0.13% among 350,000;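 active means replicate mean at a twofold rise or more, about +100% in these data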;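 further: firefly luciferase made from a UUG start codon reports start codon fidelity; reporter light over untreated wells divided by growth signal over untreated wells; some hits fall short of that in this replicate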
Rce1 inhib = yeast Ras-converting enzyme inhibition | hit rate 0.27% among 290,000 | AID 2563 | Q03530 | calls only | yeast membranes, quenched prenylated peptide cleavage fluorescence;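 active means fall in fluorescence gain of 50% or more versus controls, with final raw signal at or below 3038400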;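 further: plate controls were neutral control wells for no effect and wells lacking membranes for full effect; tested at 10 µM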
Env fusion inh = inhibitors of HIV Env-mediated cell fusion | inhibition, % at 12.3 µM | HeLa-JRFL Env/CEM21 cell fusion, luciferase | hit rate 1.1% among 360,000;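 active means mean replicate inhibition score of at least 50 and every replicate individually at or above 50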;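 further: 0% = plate neutral controls and 100% = maraviroc near 300 nM; one replicate is shown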
PABP polyA inh = PABP-poly(A) binding inhibition; inhibition, % at 35 µM; hit rate 1% among 290,000; P11940; AID 2014; PABP-poly(A) RNA binding, fluorescence polarization;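 active means 50% or more with normal probe brightness, or confirmed in later tests; about a fifth of its hits are not listed in these tables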;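 further: calls also rest on retests at 20 µM and on dose response follow-up; controls were probe without protein and protein plus probe with vehicle; some compounds called inactive have numbers as strong as hits; many hits fall short of the cut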
Target sequence (P11940 whole entry, looked up): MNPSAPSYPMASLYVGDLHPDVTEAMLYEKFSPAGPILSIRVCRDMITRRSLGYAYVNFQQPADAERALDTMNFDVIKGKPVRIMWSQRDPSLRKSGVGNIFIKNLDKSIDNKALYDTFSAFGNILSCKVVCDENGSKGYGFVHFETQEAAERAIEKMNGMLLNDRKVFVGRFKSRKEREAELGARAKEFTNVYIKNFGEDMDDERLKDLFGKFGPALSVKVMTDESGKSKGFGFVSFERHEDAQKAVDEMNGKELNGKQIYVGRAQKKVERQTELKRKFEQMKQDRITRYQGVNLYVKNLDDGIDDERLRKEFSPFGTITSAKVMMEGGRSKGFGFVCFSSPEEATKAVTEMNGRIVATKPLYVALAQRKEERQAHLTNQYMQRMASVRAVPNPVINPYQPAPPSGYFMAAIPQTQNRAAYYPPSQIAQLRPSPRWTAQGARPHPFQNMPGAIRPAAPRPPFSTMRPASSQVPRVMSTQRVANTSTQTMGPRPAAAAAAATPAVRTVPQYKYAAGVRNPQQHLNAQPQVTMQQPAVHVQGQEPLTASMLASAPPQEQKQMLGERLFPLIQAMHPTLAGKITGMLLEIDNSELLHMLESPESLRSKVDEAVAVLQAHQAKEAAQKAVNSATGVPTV
MT1-MMP act inh = MT1-MMP (human) activation inhibition. P50281. HT1080 RFP-PRO-GFP cells, GFP/RFP ratio fluorescence, overnight; percent of plate control window, DMSO zero. GFP/RFP ratio change, % at 20 µM. hit rate 0.061% among 360,000. AID 651647;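 active means GFP/RFP ratio change of at least 30% with cell ATP level not reduced by more than half and red fluorescence within 50% of control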; further: strong numbers were not always called active
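Material – HT1080 RFP-PRO-GFP cells · Control set – DMSO wells and RFP-L50D-GFP cells · Incubation – overnight cell settling, then overnight compound exposure, 37 °C, 5% CO2 · Compound dosing – single-point 20 µM compound, 1% DMSO · Read-out – GFP/RFP fluorescence ratio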
eIF4H FP inh = inhibitors of RNA binding by human eIF4H | inhibition, % at 35 µM | Q15056 | eIF4H fluorescence polarization binding assay | hit rate 0.94% among 290,000;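 active means 50% or more with normal probe brightness, or confirmed in later tests; about a fifth of its hits are not listed in these tables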;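 further: calls also rest on retests at 20 µM and on dose response follow-up; 0% = protein and probe with vehicle and 100% = probe without protein; strong numbers were not always called active; many hits fall short of the cut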
CSC inhib = blocks cancer stem cells; inhibition, % at 7.5 µM; cancer stem cell-like cells viability, luminescence; hit rate 1.1% among 300,000;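 active means mean at 75% or more and at least half the replicates too; tested in HMLE shEcad cells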;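 further: 0% = median of negative and 100% = median of positive control wells; the first replicate is given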
eIF4H FP inh retest = also measured in eIF4H FP inh; calls as there; inhibition, %; compound at 20 µM; confirmation average;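 mean of two retest wells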
PABP polyA inh retest = further read-out of PABP polyA inh, marked with its call; inhibition, %; compound at 20 µM; confirmation repeats;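 mean of two retest wells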
MT1-MMP act inh RFP = second read-out of MT1-MMP act inh, no call of its own (marks repeat the call); RFP signal change, %; measured here: RFP expression control read;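 0 = vehicle wells; hits needed this value within 50% of zero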
Active calls of the source: *; i = inactive; . = no result given; & = joins results of further samples.

SMILES	Yeast UUG start	Rce1 inhib	Env fusion inh	PABP polyA inh	MT1-MMP act inh	MT1-MMP act inh RFP	eIF4H FP inh	CSC inhib	others
Clc1cccc(Nc2nc(N3CCOCC3)nc(N3CCOCC3)n2)c1	-14	i	2	0	-11	-6	-2	5
Cc1cccc([C@H](NC(=O)OC(C)(C)C)C(=O)OC(C)(C)C)c1	-1	.	12	.	-4	-2	.	-11
COc1cc(C(=O)NC2=NCCS2)ccc1OCc1c(C)noc1C	17	i	-80	2	-2	2	-5	-17
CC1CCCC(NC(=O)CN2C(=O)c3cccnc3Oc3ccc(Cl)cc32)C1C (stereo unspecified)	-21	i	4	-15	4	1	-16	-14
CCN(CC(=O)Nc1c(F)cccc1F)C(=O)c1ccc(-c2ccc(C(C)=O)cc2)o1	-9	.	-6	.	5	1	.	-5
COc1ccc(-n2cnc3sc(-c4ccccc4)cc3c2=O)cc1	-2	i	.	-2	4	1	4	-11
CCC1=NN(C(=O)CCc2ccccc2O)C(O)(C(F)(F)F)C1 (stereo unspecified)	-15	i	-4	-2	4	8	0	-2
CCCCC(=O)N(C)c1c(CC)nc2c(OCc3ccccc3C)cccn12	-16	.	-5	.	-30	-40	.	.
CS(=O)(=O)/C(C#N)=C/c1cccn1S(=O)(=O)c1ccc([N+](=O)[O-])cc1	-16	.	13	.	-1	-3	.	.
Cc1cc(C)c2c(N)c(C(=O)NC3CC3)sc2n1	.	i	.	-5	1	1	-4	-1
CN(C)/N=C/c1ccc(P(c2ccc(/C=N/N(C)C)o2)c2ccc(/C=N/N(C)C)o2)o1	-7	i	-2	12	0	5	4	-2
COc1ccccc1NC(=O)CSc1ccc2nnc(CCNC(=O)c3ccccc3)n2n1	-16	i	7	2	1	2	-9	4
CC1(C)CC[C@]2(C(=O)O)CC[C@]3(C)C(=CC[C@@H]4[C@@]5(C)CC[C@H](O[C@@H]6O[C@H](C(=O)O)[C@@H](O)[C@H](O[C@@H]7OC[C@H](O)[C@H](O)[C@H]7O)[C@H]6O)C(C)(C)[C@@H]5CC[C@]43C)[C@@H]2C1	6	.	-30	.	-4	2	.	99*
O=C(NCC1CCOCC1)c1ccc2nc(Cc3cccc(Cl)c3)oc2c1	-9	i	8	5	0	-3	-1	3
Cc1cc(/C=N/NC(=O)c2cccc([N+](=O)[O-])c2)c(C)n1-c1ccc(Cl)cc1Cl	-12	i	.	2	-1	-4	-4	10
CC(=O)Nc1ccc(NC(=O)CC2SC(=O)N(CC(=O)c3ccccc3)C2=O)cc1 (stereo unspecified)	3	.	-1	10	0	2	-17	0
Clc1cccc(-c2ccc3nccn3c2)c1Cl	-17	.	20	.	-4	-3	.	.
O=C(COc1coc(CN2CCN(c3ccccc3)CC2)cc1=O)Nc1ccccc1	-2	i	2	.	-2	-4	.	-1
CSCCC(NS(=O)(=O)c1ccccc1F)C(=O)NCCCn1nc(C)cc1C (stereo unspecified)	.	i	4	.	-5	-3	.	-11
CC(=O)Nc1ccc(S(=O)(=O)NC2CC(=O)N(c3ccc(C)c(C)c3)C2)cc1 (stereo unspecified)	6	i	-4	.	-2	2	.	-8
COC(=O)N(NC(=O)C(O)(C(C)C)C(C)C)c1ccccc1	.	i	3	7	-1	4	6	-9
COc1cc2sc3cc(NCCCN4CCOCC4)ccc3c(=O)c2cc1OC	8	.	1	.	14	3	.	9
COc1ccc(CNC(=O)C2CCCN(S(=O)(=O)c3cnc[nH]3)C2)cc1 (stereo unspecified)	-20	i	-1	1	-3	1	5	3
Cc1ccc(C(c2nnnn2Cc2cccs2)N2CCN(C(=O)c3ccco3)CC2)cc1 (stereo unspecified)	4	i	-76	8	-1	1	-14	-6

Looked up by compound from the list above:
SMILES	Yeast UUG start	Rce1 inhib	Env fusion inh	PABP polyA inh	MT1-MMP act inh	MT1-MMP act inh RFP	eIF4H FP inh	CSC inhib	others
Clc1cccc(Nc2nc(N3CCOCC3)nc(N3CCOCC3)n2)c1	-14	i	2	0	-11	-6	-2	5
CN(C)/N=C/c1ccc(P(c2ccc(/C=N/N(C)C)o2)c2ccc(/C=N/N(C)C)o2)o1	-7	i	-2	12	0	5	4	-2
COc1ccc(-n2cnc3sc(-c4ccccc4)cc3c2=O)cc1	-2	i	.	-2	4	1	4	-11
CC1CCCC(NC(=O)CN2C(=O)c3cccnc3Oc3ccc(Cl)cc32)C1C (stereo unspecified)	-21	i	4	-15	4	1	-16	-14

Continuation.
SMILES	Yeast UUG start	Rce1 inhib	Env fusion inh	PABP polyA inh	MT1-MMP act inh	MT1-MMP act inh RFP	eIF4H FP inh	CSC inhib	others
CC(=O)N1CCN(c2ccc(NC(=O)c3cc(Cl)ccc3Cl)cc2)CC1	-10	i	13	5	2	-2	-1	-7
Fc1ccccc1CNc1ccc(Cl)c(Cl)c1	-17	i	-40	-2	-1	-3	-4	3
Cn1cnnc1SCC(=O)NCCC1=CCCCC1	-24	.	-5	.	1	7	.	-15
COC(=O)c1[nH]c2ccc(C)cc2c1NC(=O)CN1CCC(C)CC1	2	i	14	-4	5	-2	-4	-12
CCOc1cc(N2CCOCC2)c(OCC)cc1NC(=O)C(C)Oc1ccccc1 (stereo unspecified)	11	.	-18	.	-1	-6	.	63
CCOC(=O)C1CCCN(C(=O)c2cc(S(=O)(=O)Nc3ccccc3OC)ccc2C)C1 (stereo unspecified)	-24	i	9	4	-2	2	-2	-6
Cc1cc(-c2nc(C)c(C(=O)NNS(=O)(=O)c3ccc(Cl)cc3Cl)s2)no1	1	i	-1	1	1	1	-11	10
CCOC(=O)C1=CCN(S(=O)(=O)c2ccc(Br)cc2)C1c1ccc(C)cc1 (stereo unspecified)	-21	.	-3	.	-5	-3	.	.
CSCCC(=O)N1CCN(CC(=O)N2CCCC2)CC1	2	i	-28	2	2	4	-3	-2
O=P(CCCO)(Cc1ccccc1)Cc1ccccc1	-18	i	-5	2	-1	2	2	3
S=c1[nH]nc(COc2ccc(Cl)cc2)o1	-22	i	-42	6	0	4	4	-9
S=C1NCCc2ccc(Cl)cc2C1c1ccccc1Cl (stereo unspecified)	-31	i	-68	-7	-16	1	-17	11
COc1cc(/C=C/C(=O)OCC(=O)Nc2cc(S(=O)(=O)N3CCCCC3)ccc2C)ccc1O	.	i	-12	2	6	1	-7	-11
COc1ccc(C=O)cc1CSc1ncccc1C(=O)O	-20	i	2	7	2	4	-4	-9
O=C1ON=C(c2ccccc2[N+](=O)[O-])/C1=C/c1cccc([N+](=O)[O-])c1O	-11	.	.	.	-1	0	.	-11
CCN1C(=O)C(O)(C2COC(C)(C)CC2=O)c2ccccc21 (stereo unspecified)	-19	.	8	-4	3	4	0	.
Cc1cc(C2CC(=O)Nc3ccccc3S2)c(C)s1 (stereo unspecified)	.	i	-2	-2	2	3	-8	-13
O=C(c1cn(Cc2ccccc2)nc1-c1ccccc1)N1CCN(c2ccccn2)CC1	.	.	-47	.	-1	-10	.	42
COc1ccc(N(C(=O)c2cccnc2)S(=O)(=O)c2ccc(Cl)cc2)cc1	-12	i	-8	-10	0	3	-7	.
COc1ccc(S(=O)(=O)N2CCC(C(=O)NC3CC(C)(C)NC(C)(C)C3)CC2)cc1	-5	i	16	.	2	5	.	-15
COc1cc(NC(=O)CCC(=O)OCCCC(F)(F)C(F)(F)F)nc(OC)n1	.	i	-17	2	-7	-2	2	10
O=S(=O)(c1ccccc1F)N1CCC(c2nc3ccccc3[nH]2)CC1	-7	i	-3	5	0	0	2	.
COc1ccc(/C=C2\SC(=S)N(CCCC(=O)Nc3ccccc3C(=O)O)C2=O)cc1OC	-9	i	1	34*	-15	2	57	-4	eIF4H FP inh retest=-1;PABP polyA inh retest=90*
O=C(Cc1ccc(S(=O)(=O)N2CCCC2)s1)Nc1nc2c(s1)CCCC2	-27	i	-20	42	-21	-2	40	-7
Cc1ccc(CSC2=NCCN2S(=O)(=O)c2ccccc2)cc1	.	i	-3	-6	2	4	-2	-19
Nn1c(SCC(=O)Nc2ccc3c(c2)OCCO3)nnc1-c1ccccn1	.	i	.	-1	4	7	-12	25
COc1ccc(NC(=O)CSc2nnc(-c3ccoc3C)n2CC2CCCO2)cc1 (stereo unspecified)	-2	i	-69	-14	0	0	-9	-7
NC(N)=N/N=C/c1c(Cl)cccc1Cl	-11&0	i	0&14	0&8	0&2	-3&-1	0&-5	-9&-9
Cn1c(C(=O)N2CCN(c3ccc([N+](=O)[O-])cc3)CC2)cc2c(=O)[nH]c3ccccc3c21	-10	i	38	-19	3	-9	-6	.
COc1cc2[nH]c(C(=O)N3CC(C)OC(C)C3)cc2c(OC)c1OC (stereo unspecified)	-9	i	-21	10	1	4	-6	-9
CCOc1ccc(N(CC(=O)NC2CCCC2)S(=O)(=O)c2ccccc2)cc1	-7	i	8	-3	0	1	-4	.
CCNC(=O)COC(=O)c1cc(C)nc2ccccc12	.	i	-11	-1	1	2	-13	-3
CCn1c(CNC(=O)c2ccco2)nnc1SCC(=O)Nc1ccccc1Cl	-16	i	13	2	1	0	-3	.
CC(=O)Nc1cccc(-c2cc(NC=O)c3ncc(-c4ccc(C(C)=O)cc4)n3c2)c1	-12	.	16	.	-5	0	.	.
O=C(O)C1CC=CCC1C(=O)Nc1ccc2c(c1)CCC2 (stereo unspecified)	-3	i	-14	-1	-5	4	-4	-7
O=C1c2ccccc2S(=O)(=O)N1CCOc1ccc(F)cc1	-8	i	-84	-2	3	-3	-10	-3
Cc1oc(-c2ccc(F)cc2)cc1-c1nn2c(-c3ccoc3C)nnc2s1	-1	i	-77	63*	-7	5	80*	-16
CCCCOc1ccc(C(=O)OCC(=O)Nc2cc(C)c(C)cc2[N+](=O)[O-])cc1	.	i	15	23	-5	1	4	-10
Cc1ccc(C)c(S(=O)(=O)NCc2ccc(C(=O)N3CCCCC3C)cc2)c1 (stereo unspecified)	-10	i	-10	-3	-3	-3	2	-9
CCN(C(=O)CN(C)Cc1c(F)cccc1Cl)c1c(N)n(Cc2ccccc2)c(=O)[nH]c1=O	.	i	-13	-7	0	4	-11	-1
COc1ccc(S(=O)(=O)/N=C2/C=CC(=O)C(C)=C2C)cc1	-4	i	.	-2	-5	3	0	3

Structures from the list above that contain an NH in an aromatic ring (7):
SMILES	Yeast UUG start	Rce1 inhib	Env fusion inh	PABP polyA inh	MT1-MMP act inh	MT1-MMP act inh RFP	eIF4H FP inh	CSC inhib	others
COc1ccc(CNC(=O)C2CCCN(S(=O)(=O)c3cnc[nH]3)C2)cc1 (stereo unspecified)	-20	i	-1	1	-3	1	5	3
COC(=O)c1[nH]c2ccc(C)cc2c1NC(=O)CN1CCC(C)CC1	2	i	14	-4	5	-2	-4	-12
S=c1[nH]nc(COc2ccc(Cl)cc2)o1	-22	i	-42	6	0	4	4	-9
O=S(=O)(c1ccccc1F)N1CCC(c2nc3ccccc3[nH]2)CC1	-7	i	-3	5	0	0	2	.
Cn1c(C(=O)N2CCN(c3ccc([N+](=O)[O-])cc3)CC2)cc2c(=O)[nH]c3ccccc3c21	-10	i	38	-19	3	-9	-6	.
COc1cc2[nH]c(C(=O)N3CC(C)OC(C)C3)cc2c(OC)c1OC (stereo unspecified)	-9	i	-21	10	1	4	-6	-9
CCN(C(=O)CN(C)Cc1c(F)cccc1Cl)c1c(N)n(Cc2ccccc2)c(=O)[nH]c1=O	.	i	-13	-7	0	4	-11	-1
